Source: PubChem BioAssay (several laboratories)
Rce1 inh – yeast Ras-converting enzyme inhibition | Q03530 | yeast membranes, quenched prenylated peptide cleavage fluorescence | calls only | hit rate 0.27% among 290,000 | AID 2563;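 active means fall in fluorescence gain of 50% or more versus controls, with final raw signal at or below 3038400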;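 further: plate controls were neutral control wells for no effect and wells lacking membranes for full effect; tested at 10 µM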
Target sequence (Q03530 whole entry, looked up): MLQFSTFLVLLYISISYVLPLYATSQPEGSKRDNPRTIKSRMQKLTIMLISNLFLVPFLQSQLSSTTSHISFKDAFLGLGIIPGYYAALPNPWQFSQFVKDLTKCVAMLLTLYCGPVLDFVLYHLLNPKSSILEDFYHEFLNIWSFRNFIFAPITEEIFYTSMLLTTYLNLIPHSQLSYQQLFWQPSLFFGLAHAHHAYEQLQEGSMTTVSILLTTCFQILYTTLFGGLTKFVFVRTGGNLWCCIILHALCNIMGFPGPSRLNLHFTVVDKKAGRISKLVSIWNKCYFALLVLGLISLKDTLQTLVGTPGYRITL
CSC inhib – cancer stem cell inhibition; cancer stem cell-like cells viability, luminescence; inhibition, % at 7.5 µM; hit rate 1.1% among 300,000; AID 2717;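 active means mean at 75% or more and at least half the replicates too; tested in HMLE shEcad cells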;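 further: 0% = median of negative and 100% = median of positive control wells; the first replicate is given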
UUG fidelity – yeast start codon fidelity modulation | S. cerevisiae UUG-firefly luciferase reporter, luminescence/redox ratio | activity score, % at 18.7 µM | hit rate 0.13% among 350,000 | AID 602363;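 active means replicate mean at a twofold rise or more, about +100% in these data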;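 further: firefly luciferase made from a UUG start codon reports start codon fidelity; reporter light over untreated wells divided by growth signal over untreated wells; some hits fall short of that in this replicate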
MT1-MMP act inh – MT1-MMP (human) activation inhibition; P50281; HT1080 RFP-PRO-GFP cells, GFP/RFP ratio fluorescence, overnight; percent of plate control window, DMSO zero; GFP/RFP ratio change, % at 20 µM; hit rate 0.061% among 360,000;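 active means GFP/RFP ratio change of at least 30% with cell ATP level not reduced by more than half and red fluorescence within 50% of control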; further: strong numbers were not always called active
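system = RFP-PRO-GFP reporter HT1080 cells | dosing = 20 µM single dose, 1% DMSO | timing = overnight cell settling, then overnight compound exposure, 37 °C, 5% CO2 | read-out basis = GFP/RFP fluorescence ratio | controls = DMSO and RFP-L50D-GFP cell wells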
PABP polyA inh – blocks human PABP binding to poly(A) RNA; inhibition, % at 35 µM; fluorescence polarization; P11940; hit rate 1% among 290,000;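 active means 50% or more with normal probe brightness, or confirmed in later tests; about a fifth of its hits are not listed in these tables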;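 further: calls also rest on retests at 20 µM and on dose response follow-up; controls were probe without protein and protein plus probe with vehicle; some compounds called inactive have numbers as strong as hits; many hits fall short of the cut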
Env fusion inh – inhibitors of HIV Env-mediated cell fusion. HeLa-JRFL Env/CEM21 cell fusion, luciferase. inhibition, % at 12.3 µM. hit rate 1.1% among 360,000;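 active means mean replicate inhibition score of at least 50 and every replicate individually at or above 50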;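 further: 0% = plate neutral controls and 100% = maraviroc near 300 nM; one replicate is shown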
eIF4H inh – inhibitors of RNA binding by human eIF4H. Q15056. eIF4H fluorescence polarization binding assay. inhibition, % at 35 µM. hit rate 0.94% among 290,000;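 active means 50% or more with normal probe brightness, or confirmed in later tests; about a fifth of its hits are not listed in these tables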;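 further: calls also rest on retests at 20 µM and on dose response follow-up; 0% = protein and probe with vehicle and 100% = probe without protein; strong numbers were not always called active; many hits fall short of the cut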
MT1-MMP act inh RFP – recorded beside MT1-MMP act inh, whose call it bears; RFP signal change, %; measured here: RFP expression control read;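 0 = vehicle wells; hits needed this value within 50% of zero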
Starred values were filed as active, the others as inactive; i = inactive; nt = no result given.

Under each structure – Rce1 inh	CSC inhib	UUG fidelity	MT1-MMP act inh	MT1-MMP act inh RFP	PABP polyA inh	Env fusion inh	eIF4H inh
1. CCCC(=O)Nc1c(-c2ccccc2)c(=O)c(C)nn1-c1ccc(Cl)cc1
→ i	11	nt	2	-1	25	12	7
2. CCN(CC)S(=O)(=O)c1cccc(NC(=O)c2cc(-c3cccs3)nn2-c2ccccc2)c1
→ i	3	nt	nt	nt	1	11	-11
3. O=C(Nc1ccccc1C(=O)O)/C(=C/c1ccc(Cl)cc1Cl)NC(=O)c1ccco1
→ i	-7	-13	-4	0	17	13	-6
4. O=C(Oc1cccnc1)c1cccc(Cl)c1
→ i	-2	-41	-1	-1	18	nt	-7
5. Cc1ccccc1-c1nsc(SCC(=O)Nc2ccc3c(c2)OCO3)n1
→ i	nt	nt	4	-2	-11	9	-14
6. O=C(CCc1nc2ccccc2c(=O)[nH]1)Nc1ccccc1N1CCCCC1
→ nt	nt	-14	3	4	nt	-30	nt
7. O=C(CCCCCN1C(=O)c2ccccc2C1=O)NCCc1nc2ccccc2[nH]1
→ i	-1	9	2	-1	-10	nt	-4
8. Cc1ccc(C)c(NCc2ccccc2CO)c1
→ i	-7	nt	3	0	-2	14	-6
9. CCOC(=O)C1=C(C)NC(=O)C(C(N)=O)C12CCCC2 (stereo not drawn)
→ i	-12	-6	6	5	-5	-69	2
10. COC(=O)c1ccc(-c2nn(C)c(=O)c3ccccc23)cc1
→ i	-11	9	0	3	-13	13	-3
11. Cc1cc(=O)oc2cc(OCC(=O)NCCc3ccccc3)ccc12
→ i	3	-12	5	5	-1	1	9
12. Cc1cnc(C(=O)OCC(=O)NCc2cccc(Cl)c2)cn1
→ nt	-12	-11	-1	1	nt	nt	nt
13. COC(Cc1nnc(SC)n1-c1ccc(Cl)cc1)OC
→ i	-3	-20	2	-1	4	13	-1
14. CCN1CCC(NC(=O)c2cc(OC)c(OC)cc2OC)CC1
→ i	-12	nt	-2	1	2	nt	-8
15. ClCc1nc2ccccc2c2ccccc12
→ nt	24	0	-3	3	7	1	6
16. Cc1cccc(CCNC(=O)Cn2ncc3c([nH]c4ccccc43)c2=O)c1
→ i	12	-15	-1	1	0	nt	-11
17. CSCCC(NS(=O)(=O)c1ccccc1F)C(=O)NCc1cccnc1 (stereo not drawn)
→ i	-5	-9	-4	-1	nt	3	nt
18. COc1cccc(C(NC(C)=O)c2nc(-c3ccccc3)cs2)c1 (stereo not drawn)
→ nt	nt	-10	1	-1	nt	-4	nt
19. COCCNC(=O)C(OC(=O)c1cccs1)c1ccccc1 (stereo not drawn)
→ i	nt	-3	-3	1	0	-24	-3
20. C1CCCN(CCCCN2CCCCCC2)CC1
→ i	nt	nt	0	5	17	-6	0
21. CCn1c(SCC(=O)N2CCN(c3ccc(F)cc3)CC2)nc2ccccc2c1=O
→ i	77*	2	3	-16	-5	nt	-4
22. CCOC(=O)c1[nH]c2ccccc2c1NC(=O)c1ccc2c(c1)OCO2
→ i	-10	-5	-1	-1	-2	1	7
23. COc1ccc(C(=O)c2c[nH]c(C(=O)NCc3cccs3)c2)cc1
→ i	-10	nt	3	1	-7	nt	6
24. CCN(CC)c1nc(-c2ccccc2)cc(C(F)(F)F)c1C#N
→ i	15	-10	3	7	-3	nt	38
25. Cc1ccc(S(=O)(=O)N[C@@H](Cc2ccccc2)C(=O)N2CCC(C(=O)N[C@@H](CC(C)C)C(=O)O)CC2)cc1
→ i	-15	-1	-1	5	-1	-23	6
26. Cc1ccc(CNC(=O)C2CCC(=O)N(Cc3cccc(C(F)(F)F)c3)C2)o1 (stereo not drawn)
→ i	-9	-11	2	4	-1	-10	4
27. CC(C)[C@H](NC(=O)c1ccccc1Cl)C(=O)Nc1nc(-c2ccccn2)cs1
→ i	17	-31	9	-3	3	13	5
28. CCOc1ccc(-n2cc(-c3ccccc3)c3c(N4CCOCC4)ncnc32)cc1
→ i	104*	-3	-17	-13	-5	8	6
29. COc1cc(/C=C/C(=O)OCC(=O)NC(=O)NC(C)C)ccc1O
→ i	28	5	4	8	0	57*	0
30. COC(=O)c1ccc(NC(=O)CO/N=C2\CCCc3nonc32)cc1
→ i	4	-12	0	3	-13	24	4
31. C/C=C/Cn1c(SC)nc2c1c(=O)[nH]c(=O)n2C
→ i	-7	-8	1	5	12	nt	-8
32. S=C(NCc1ccco1)N/N=C/c1ccc(Cl)cc1
→ i	2	nt	0	0	3	1	4
33. Cc1cc(C)cc(N(C(=O)c2ccc3c(c2)OCO3)C2C=CS(=O)(=O)C2)c1 (stereo not drawn)
→ i	-3	-2	-4	-3	-6	-9	-14
34. CC(=O)N1CCN(c2ccc(NC(=O)c3ccc(F)cc3)cc2)CC1
→ i	-9	-17	-2	0	21	12	-4
35. CCc1nc(N2CCCCC2C(=O)O)c2oc3ccccc3c2n1 (stereo not drawn)
→ nt	-9	nt	-3	-1	4	-11	-2
36. CCc1ccccc1NC(=O)C1c2ccccc2Oc2ccccc21
→ i	-7	nt	-1	1	2	-1	-12
37. Fc1ccccc1-c1cc2ncccc2cn1
→ nt	4	-1	-2	1	nt	-38	nt
38. O=C(COc1ccc(Cl)cc1)NNC(=O)C(=O)NC1CCCCC1
→ i	-10	-20	5	5	-4	-43	5
39. O=C(O)CN1CCN(C(c2ccccc2)c2ccccc2)CC1
→ i	-12	-18	-2	2	2	8	-1
40. CCCCNC(=O)CN(c1cccc(F)c1)S(C)(=O)=O
→ i	-8	-8	-3	0	0	nt	2
41. O=C(c1ccc(CS(=O)c2ccccc2Cl)o1)N1CCN(c2ccccn2)CC1 (stereo not drawn)
→ i	-25	-19	-4	-11	-1	16	1
42. O=C(NCc1ccc2c(c1)OCO2)C1(S(=O)(=O)c2ccccc2)CC1
→ i	nt	-15	-2	-1	-5	nt	3
43. Cc1ccc(CNC(=O)C(OC(=O)c2ccco2)C(C)C)cc1 (stereo not drawn)
→ i	-17	-18	-4	2	-9	33	-1
44. Cc1c(C(=O)NCCN2CCOCC2)oc2ccc(S(=O)(=O)N3CCCCCC3)cc12
→ i	-11	-11	3	1	-10	6	-1
45. COc1ccc(C(=O)Nc2cnn(Cc3c(F)cccc3Cl)c2)cc1OC
→ i	49	-17	5	-9	12	8	-12
46. Cc1ccc(S(=O)(=O)NC(=O)COc2cc(C)ccc2C(C)C)cc1
→ i	-3	-1	-1	1	-9	1	-8
47. Cc1ccc(-n2nnnc2SCC(=O)Nc2cccnc2Cl)cc1
→ i	3	-28	-9	-7	-1	-12	1
48. COc1ccc(N/C=C(/C(C)=O)c2ccccc2)cc1
→ i	3	nt	-1	2	-8	nt	-11
49. CC(=O)N1CCN(c2ncnc3ccccc23)CC1
→ i	-6	4	-5	-2	-4	40	1
50. O=C(/C=C/c1cccc([N+](=O)[O-])c1)NC(=S)Nc1ccc(CN2CCOCC2)cc1
→ i	26	-10	-18	-20	4	2	-7
51. COc1ccccc1CNC(=O)C(=O)NCCC1CCCCN1S(=O)(=O)c1ccccc1 (stereo not drawn)
→ i	-1	-3	-1	-3	nt	7	nt
52. COC(=O)c1ccc(NC(=S)N(Cc2cccnc2)Cc2ccco2)cc1
→ i	-20	-20	-2	-2	5	13	0
53. Cc1ccc(S(=O)(=O)N2CCN(c3nc(-c4cccs4)nc4ccccc34)CC2)cc1
→ nt	nt	-45	-3	-1	nt	31	nt
54. Cc1cc(Nc2ccc(N3CCC(C)CC3)cc2)n2ncnc2n1
→ i	-3	-8	4	-4	25	nt	2
55. Cc1cc(N2CCOCC2)nc(C(C)C)n1
→ i	-6	-3	-2	2	17	1	-2
56. Cc1ccc(NC(=O)CCNC(=O)Nc2ccccc2)cc1S(=O)(=O)N(C)C
→ nt	-3	-10	2	0	nt	nt	nt
57. COC(=O)c1cc(NC(=O)c2c(F)c(F)c(F)c(F)c2F)cc(C(=O)OC)c1
→ i	-9	nt	1	0	6	-6	-10
58. COc1ccccc1NS(=O)(=O)c1cccc(C(=O)NNC(=O)c2ccc(O)c(Cl)c2)c1
→ i	-4	nt	3	1	nt	-1	nt
59. COc1ccc(NC(=O)CN2C(=O)NC3(CCCC3)C2=O)cc1S(=O)(=O)N1CCCCC1
→ nt	nt	-5	1	1	nt	2	nt
60. Cc1cc2nc(C)n3c4ccccc4nc3n2n1
→ i	-5	24	7	3	-4	nt	-5

(continued)
Under each structure – Rce1 inh	CSC inhib	UUG fidelity	MT1-MMP act inh	MT1-MMP act inh RFP	PABP polyA inh	Env fusion inh	eIF4H inh
61. CN(C)/C=N/C(=S)Nc1ccccc1
→ i	-9	-20	-2	2	-4	-14	-5
62. C=CCSC1=N/C(=C\c2sccc2C)C(=O)S1
→ i	18	-22	-1	5	-5	-15	-4
63. CC1CCCN(C(=O)c2ccc(S(=O)(=O)Nc3ccccc3Cl)cc2)C1 (stereo not drawn)
→ i	nt	-14	-2	-9	-5	8	7
64. CC(C(=O)O)(C1CCCCC1)C1(O)CCCCC1 (stereo not drawn)
→ nt	nt	-9	2	5	nt	-19	nt
65. OC(Cn1ccnc1)c1ccc(Cl)cc1Cl (stereo not drawn)
→ i	1	-19	-1	2	-14	nt	-7

2 of these compounds, set out differently:
item	SMILES	Rce1 inh	CSC inhib	UUG fidelity	MT1-MMP act inh	MT1-MMP act inh RFP	PABP polyA inh	Env fusion inh	eIF4H inh
40	CCCCNC(=O)CN(c1cccc(F)c1)S(C)(=O)=O	i	-8	-8	-3	0	0	nt	2
41	O=C(c1ccc(CS(=O)c2ccccc2Cl)o1)N1CCN(c2ccccn2)CC1 (stereo not drawn)	i	-25	-19	-4	-11	-1	16	1

Of the compounds above, these have fluorine.
Under each structure – Rce1 inh	CSC inhib	UUG fidelity	MT1-MMP act inh	MT1-MMP act inh RFP	PABP polyA inh	Env fusion inh	eIF4H inh
17. CSCCC(NS(=O)(=O)c1ccccc1F)C(=O)NCc1cccnc1 (stereo not drawn)
→ i	-5	-9	-4	-1	nt	3	nt
21. CCn1c(SCC(=O)N2CCN(c3ccc(F)cc3)CC2)nc2ccccc2c1=O
→ i	77*	2	3	-16	-5	nt	-4
24. CCN(CC)c1nc(-c2ccccc2)cc(C(F)(F)F)c1C#N
→ i	15	-10	3	7	-3	nt	38
26. Cc1ccc(CNC(=O)C2CCC(=O)N(Cc3cccc(C(F)(F)F)c3)C2)o1 (stereo not drawn)
→ i	-9	-11	2	4	-1	-10	4
34. CC(=O)N1CCN(c2ccc(NC(=O)c3ccc(F)cc3)cc2)CC1
→ i	-9	-17	-2	0	21	12	-4
37. Fc1ccccc1-c1cc2ncccc2cn1
→ nt	4	-1	-2	1	nt	-38	nt
40. CCCCNC(=O)CN(c1cccc(F)c1)S(C)(=O)=O
→ i	-8	-8	-3	0	0	nt	2
45. COc1ccc(C(=O)Nc2cnn(Cc3c(F)cccc3Cl)c2)cc1OC
→ i	49	-17	5	-9	12	8	-12
57. COC(=O)c1cc(NC(=O)c2c(F)c(F)c(F)c(F)c2F)cc(C(=O)OC)c1
→ i	-9	nt	1	0	6	-6	-10

Only part of the results is shown; rates above refer to the full screens.
